Bioassay records deposited in PubChem by Sanford-Burnham Center for Chemical Genomics.
MT1-MMP reporter = MT1-MMP gene expression reporter suppression – cell-based, luciferase reporter, luminescence (AID 618); hit rate 0.62% among 87,000; calls from a first round at 10 µM; hits with a dose series show EC50 in µM; MT1-MMP promoter luciferase reporter cells, luminescence;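 active = over half of the reporter light lost at 10 µM or EC50 under 50 µM; inactive = the rest and hits that failed the dose series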;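 note: actives suppress MT1-MMP promoter-driven transcription so potencies describe inhibitors; HT1080 fibrosarcoma cells; overnight exposure; toxic or luciferase-blocking compounds were not removed from the actives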
Calls only; i = inactive. Only part of the results is shown; count on the stated rates, not on these rows.

SMILES	MT1-MMP reporter
COC(=O)[C@@]1(Cc2ccc(OC)cc2)[C@H]2c3cc(C(=O)N4CCCC4)n(CCc4c[nH]c5cc(F)ccc45)c3C[C@H]2CN1C(=O)c1ccccc1	i
COC(=O)C1=C(C)N(CCCC(=O)O)C(=O)NC1c1cc2c(cc1[N+](=O)[O-])OCO2 (configuration not stated)	i
COc1ccc(NC(=O)N2CCN(c3cccc(C(F)(F)F)c3)CC2)cc1OC	i
O=C(CCc1ccccc1)NCC#CC(O)c1ccc(Br)cc1 (configuration not stated)	i
CCN1C(=O)[C@@H]2[C@H](C1=O)[C@@H]1C[C@H]3C(=O)N(CC)C(=O)[C@H]3[C@@H]3C1=C(C(=O)N1C(=O)OC(=NCC4CC4)[C@]31C)[C@@H]2C	i
O=C1c2cccnc2C(=O)N1Cc1ccc(Cl)cc1	i
S=C(NCCN1CCOCC1)N/N=C/c1c2ccccc2cc2ccccc12	i
CCSc1nnc(-c2ccncc2)n1Cc1ccccc1	i
CCOC(=O)c1cccc(Nc2ncnc3ccc(C)cc23)c1	i
CCOC(=O)c1c(NC(=O)c2ccccc2C)sc2c1CC(C)(C)OC2	i
CO/N=C\Cc1oc(=O)c(NC(=O)c2ccccc2)cc1C(=O)OC	i
COC(=O)NC1CCC(CC2CCC(NC(=O)OC)CC2)CC1 (configuration not stated)	i
COC(=O)[C@@H]1C[C@@H]2CC[C@@H](O)C[C@@H]2N1Cc1ccccc1OS(=O)(=O)c1ccc(C)cc1	i
CCn1c(CNC(=O)c2cccc(C)c2)nnc1SCC(=O)NC1CCCCC1C (configuration not stated)	i
O/N=C(/CCc1ccccc1)C1(O)CCCCC1	i
CC1=C(C(=O)OCc2ccccc2)C(c2ccc3ccccc3c2)NC(=O)N1CCCCCC(=O)O (configuration not stated)	i
CC(=O)N1CC=CC1(C)C(=O)NCC1CC1 (configuration not stated)	i
Cc1cccc(/C=N/n2c(C)nnc2C)c1	i
CNC(=O)C1(C)C=CCN1C(=O)c1ccccc1 (configuration not stated)	i
O=Cc1ccc(Sc2nnc(-c3ccccc3)o2)c([N+](=O)[O-])c1	i
CC1CCN(CC(=O)N2CCCc3c2c(=O)oc2ccc(OCc4ccccc4)cc32)CC1	i
CCN(CC)CCCn1c(=S)[nH]c2cc(C(=O)OC)ccc2c1=O	i
COC(=O)/C(C(C)=O)=C(\C=C\N(C)C)N(C)C	i
CCCc1cc(-c2[nH]ncc2-c2ccc3c(c2)OCCCO3)c(O)cc1OC	i
COC(=O)N(C)c1ccccc1C(=O)N1CCOCC1	i

Later entries.
SMILES	MT1-MMP reporter
O=S(=O)(c1ccc(C2CCCCC2)cc1)N1CCCC1	i
C[C@H](CO)NC(=O)[C@H](C)[C@H]1C[C@]1(C)[C@H](NC(=O)OCc1ccccc1)c1ccccc1	i
CCOC(=O)C(NC(=O)c1ccccc1)=C(C)C	i
CCOC(=O)c1cc(CC)sc1NC(=O)Cc1ccccc1	i
CCOc1ccc(NC(=O)CCCOc2cc(=O)n(C)c3ccccc23)cc1	i
COC(=O)[C@@H]1C[C@@]2(O)[C@@H](O)[C@@H](O)[C@@H](O)C[C@H]2N1Cc1ccc(C(C)(C)C)cc1	i
COC(=O)C1CCN(C(=O)Nc2ccc(OC)cc2)CC1	i
CCCC[C@@H]1C[C@H]1C(NC(=O)c1cccnc1)c1ccc(Cl)cc1 (some centres not stated)	i
CCCCn1nnc(NC(=O)CCC)n1	i
Cn1cc(CC(=O)NCCCN2CCCC2)c2ccccc21	i
O=C(Cn1cccc1C(=O)c1ccccc1)NCc1ccccc1	i
Nc1nc2nc(-c3ccc(Cl)cc3)cc(C(F)(F)F)n2n1	i
CC1CCN(CCCNC(=O)c2ccc(CSCc3cccc(Cl)c3)o2)CC1	i
O/N=C(\c1ccc(Cl)cc1)c1ncc(C(F)(F)F)cc1Cl	i
Cc1ccc(Cn2cccc2C2=NC(C)CO2)cc1 (configuration not stated)	i
CCOC(=O)C1=C(CCc2ccccc2)NC(=O)NC1c1cccc([N+](=O)[O-])c1 (configuration not stated)	i
COC(=O)[C@@]1(Cc2ccccc2)[C@H]2c3cc(C(=O)N(C)C)n(Cc4nc5ccccc5[nH]4)c3C[C@H]2CN1C(=O)c1ccccc1	i
COc1ccc(C2=CSC(/N=C/c3ccc(F)cc3)=NN2)cc1	i
O=C(CSc1ccccc1)Nc1ccccc1C(=O)O	i
C=CCn1c(SCC(=O)c2ccc(Br)cc2)nnc1C(C)NC(=O)Cc1ccc(OC)cc1 (configuration not stated)	i
c1ccc(Oc2nc(N3CCOCC3)nc(N3CCOCC3)n2)cc1	i
CCCN(CCC)CCCNC(=O)C1c2cc(OC)c(OC)cc2C(=O)N(C)C1c1cccs1 (configuration not stated)	i
CCN(CC)C(=O)C1CCCN(C(=O)Nc2ccccc2)C1 (configuration not stated)	i
CNC(=O)[C@@]1(Cc2ccccc2)C=C[C@@H](C)N1C(C)=O	i
C/C(=C\C(=O)c1cccnc1)Nc1ccc(C(=O)O)cc1	i

(next part)
SMILES	MT1-MMP reporter
COc1ccc(CCn2c(=O)[nH]c3cc(C(=O)NCCN4CCOCC4)ccc3c2=O)cc1OC	i
Cc1cc(N2CCCCC2)nc2ccc(NC(=O)CCC(=O)NCCC(C)C)cc12	i
Cc1cc(C)cc(OCC(=O)OCCN2C(=O)c3ccccc3C2=O)c1	i
O=C(CN1CCN(Cc2ccc(F)cc2Cl)C1=O)NCCc1ccc(Cl)cc1	i
COc1ccc(C(=O)c2nc3c(n2O)CCCCC3)cc1	i
COc1ccc(C(C)C)cc1S(=O)(=O)n1cnc(C)c1	i
CC1(C(=O)NCc2ccccn2)C=CCN1C(=O)c1ccccc1 (configuration not stated)	i
CCN(N=Nc1cccc([N+](=O)[O-])c1)c1cccc([N+](=O)[O-])c1	i
C=C(N(C)C)[C@]1(C)C[C@H]1[C@H](NC(=O)CNC(=O)OCc1ccccc1)c1ccccc1	i
O=C(/C=C/Nc1cccc([N+](=O)[O-])c1)c1cccs1	i
Nc1nc(SCc2ccccc2Cl)n[nH]1	i
CCN(CC(=O)N1CCc2ccccc2C1)S(=O)(=O)c1ccc2ccccc2c1	i
CCOC(=O)C1=C(C)N(CCCC(=O)O)C(=O)NC1c1cccs1 (configuration not stated)	i
CC(C)CCNC(=O)C1CC(=O)N(C2CCCC2)C1 (configuration not stated)	i
COCC(=O)n1nc(-c2ccc(Cl)cc2)nc1NCc1ccc(F)cc1	i
COC(=O)[C@@]1(Cc2ccc(OC)cc2)[C@H]2c3cc(C(=O)N4CCCC4)n(Cc4ccc(O)c(OC)c4)c3C[C@H]2CN1C(=O)c1ccccc1	i
COCCNC(=O)C1CCC(=O)N(c2ccc(OC)cc2)C1c1ccc(OC)c(OC)c1 (configuration not stated)	i
CCC(Sc1nc2ccccc2c(=O)[nH]1)C(=O)O (configuration not stated)	i
CCOC(=O)C1=C(C)NC(=O)NC1c1ccccc1OCc1c(F)cccc1Cl (configuration not stated)	i
Cc1cccc(-n2ncc3c(N4CCCc5ccccc54)ncnc32)c1	i
CCC1=C(OC(=O)N(CC)CC)N2C(=O)OC(=NCC3CC3)[C@]2(C)[C@H]2C1=CC[C@H]1C(=O)N(C)C(=O)[C@H]12	i
COC(=O)[C@@]1(Cc2ccccc2)[C@H]2c3cc(C(=O)N(C)C)n(CCN4CCNC4=O)c3C[C@H]2CN1C(=O)c1ccccc1	i
CCCCC(=O)N1CCCC(C(=O)OCC)C1 (configuration not stated)	i
O=C(CSc1nnnn1-c1ccc(O)cc1)Nc1ccc(N2CCOCC2)c(Cl)c1	i
COC(=O)c1cccc(C23CC4(C2)[C@H](CN(Cc2cccnc2)[C@@H]4c2ccccc2)C3c2ccc(C(F)(F)F)cc2)c1 (some centres not stated)	i

Five structures from above, arranged by length of the SMILES, rising.
SMILES	MT1-MMP reporter
CC(C)CCNC(=O)C1CC(=O)N(C2CCCC2)C1 (configuration not stated)	i
Cc1cccc(-n2ncc3c(N4CCCc5ccccc54)ncnc32)c1	i
Cc1cc(C)cc(OCC(=O)OCCN2C(=O)c3ccccc3C2=O)c1	i
CCOC(=O)C1=C(C)NC(=O)NC1c1ccccc1OCc1c(F)cccc1Cl (configuration not stated)	i
CCN(N=Nc1cccc([N+](=O)[O-])c1)c1cccc([N+](=O)[O-])c1	i

By substructure: those above containing bromine.
SMILES	MT1-MMP reporter
O=C(CCc1ccccc1)NCC#CC(O)c1ccc(Br)cc1 (configuration not stated)	i
C=CCn1c(SCC(=O)c2ccc(Br)cc2)nnc1C(C)NC(=O)Cc1ccc(OC)cc1 (configuration not stated)	i

Later entries:
SMILES	MT1-MMP reporter
CC(=O)c1cccc(NC(=O)C2CC(=O)N(Cc3ccccc3)C2)c1 (configuration not stated)	i
Cc1cc(OCC[N+]2(C)CCCCC2)nc2ccccc12	i
O=C(CSCc1c(Cl)cccc1Cl)Nc1ccc2c(c1)OCO2	i
Cc1cnc(NC(=O)CSc2nnc(C)s2)s1	i
COc1ccc(CN(C(=O)CO)[C@@H](CO[Si](c2ccccc2)(c2ccccc2)C(C)(C)C)c2cccc(NC(C)=O)c2OC)cc1OC	i
COc1cc2c(cc1NS(=O)(=O)N1CCCC1)oc1ccccc12	i
O=C(Nc1cccc2ccccc12)N1CC=C(c2ccccc2)CC1	i
COC(=O)[C@@H]1C[C@H]2CC[C@H](O)C[C@H]2N1Cc1ccc(C)s1	i
COCCn1c(C(=O)N2CCCC2)cc2c1C[C@H]1CN(C(=O)c3ccccc3)[C@@](Cc3ccc(F)cc3)(C(=O)OC)[C@@H]21	i
Cc1ccc(C(=O)Nc2cccc(C(=O)N3CCOCC3)c2)cc1	i
CCCCCCN(C(=O)CCCCCN1C(=O)NC(C2CC2)C(C(=O)OCc2ccccc2)=C1C)C(C(=O)NCCCC)c1ccc(OCC(=O)OC)c(C(=O)OC)c1 (configuration not stated)	i
COc1ccc(C(=O)c2ccc(Cl)cc2)cc1	i
CCc1ccc(NC(=O)CCn2ccnc2C)cc1	i
Cn1c(=O)c(C(=O)COC(=O)c2cc(C(F)(F)F)nc3c(C(F)(F)F)cccc23)c(N)n(Cc2ccccc2)c1=O	i
Cc1ccc(NC(=O)COc2ccc(Br)cc2CO)cc1	i
COC(=O)[C@@]1(Cc2ccc(F)cc2)[C@H]2c3cc(C(=O)N4CCCC4)n(C[C@H](O)CO)c3C[C@H]2CN1C(=O)c1ccccc1	i
CC1=C(C(=O)OCc2ccccc2)C(c2ccc(C(F)(F)F)cc2)NC(=O)N1CCCCCC(=O)O (configuration not stated)	i
Cc1ccc(C(=O)/C=C/Nc2ccccc2C(N)=O)cc1	i
Cn1c(=O)c(C(=O)COC(=O)c2cc(C(F)(F)F)nc3ccccc23)c(N)n(Cc2ccccc2)c1=O	i
CC12C(=O)N(Cc3ccco3)C(=O)C1C1c3ccccc3C2c2ccccc21 (configuration not stated)	i
CCC1(O)CC(C(=O)OC)=NN1C(=O)c1ccccc1 (configuration not stated)	i
CSc1ccc(C(=S)N2CCN(C(c3ccccc3)c3ccccc3)CC2)cc1	i
O=C(COc1ccc(Br)cc1CO)Nc1ccccc1	i
CCC1=C(OC(=O)N(CC)CC)N2C(=O)OC(=NCCOC)[C@]2(Cc2ccccc2)[C@H]2C1=CC[C@H]1C(=O)NC(=O)[C@H]12	i
Cc1ccc(-c2noc(CSc3nnc(Cc4ccccc4)n3-c3ccc(Cl)cc3)n2)cc1	i

Part of the list above, bar-delimited:
Structure | MT1-MMP reporter
Cc1cc(OCC[N+]2(C)CCCCC2)nc2ccccc12 | i
COc1ccc(CN(C(=O)CO)[C@@H](CO[Si](c2ccccc2)(c2ccccc2)C(C)(C)C)c2cccc(NC(C)=O)c2OC)cc1OC | i

(further entries)
SMILES	MT1-MMP reporter
CCc1cc2c(cc3c(=O)n(CC(=O)NCCCN(CC)CC)nc(CC)n32)s1	i
O=C1C=C(c2ccccc2)CC(c2cccs2)C1n1cnc([N+](=O)[O-])c1 (configuration not stated)	i
COc1ccc(CCNC(=S)Nc2cc(C)ccc2C)cc1	i
COc1ccc(C2=NOC(C(=O)Nc3cccnc3)C2)cc1 (configuration not stated)	i
COc1ccc2oc(=O)c(C(=O)n3ccc(C)n3)cc2c1	i
O=C1CSC(c2ccccn2)N1c1ccc(Cl)c(Cl)c1 (configuration not stated)	i
O=C(NNC(=O)c1ccccc1Br)c1ccc(SCC2CCCO2)c([N+](=O)[O-])c1 (configuration not stated)	i
Cc1cc(C)c(S(=O)(=O)c2ccccc2)c(OC(=O)c2c(Cl)cc(Cl)cc2Cl)n1	i
O=C(c1ccc2c(c1)OCO2)N(CC1CCCO1)C1(C(=O)NC2CCCCC2)CCCCC1 (configuration not stated)	i
CCC(C)NC(=O)C1c2ccccc2C(=O)N1Cc1ccc(OC)cc1OC (configuration not stated)	i
COc1ccc(Nc2ncnc3c2cnn3Cc2ccc(C)cc2)cc1	i
COC(=O)C1=C(C)NC(=O)/C1=C\c1cc(C)n(-c2cccc(C)c2)c1C	i
COc1ccccc1NC(=O)CSC(N)=O	i
CCn1c(-c2cc(Cl)ccc2OC)n[nH]c1=S	i
CCOc1ccc(NS(=O)(=O)c2ccc(NS(=O)(=O)c3ccccc3)cc2)cc1	i
COc1ccccc1CNC(=O)c1ccccc1N(C)S(C)(=O)=O	i
COc1ccc(-c2ccc(CCC(=O)O)n2CC(C)C)cc1	i
O=C(NCc1ccco1)c1ccc(Cn2c(=O)c3ccccc3n(Cc3cccc(F)c3)c2=O)cc1	i
COC(=O)c1cc(OC)c(OC)cc1NC(=S)N1CCC(C(N)=O)CC1	i
O=C(Cc1ccccc1)NCCCc1ccccc1	i
COC(=O)c1cn(NC(=O)c2cc(OC)c(OC)c(OC)c2)c(=O)c2ccccc12	i
COC(=O)c1cn[nH]c1NC(=S)Nc1ccc(C)cc1Cl	i

Taken from the listing, three compounds:
SMILES	MT1-MMP reporter
O=C(Cc1ccccc1)NCCCc1ccccc1	i
COC(=O)c1cn(NC(=O)c2cc(OC)c(OC)c(OC)c2)c(=O)c2ccccc12	i
COC(=O)c1cn[nH]c1NC(=S)Nc1ccc(C)cc1Cl	i
